Screening results deposited in PubChem BioAssay by ICCB-Longwood Screening Facility, Harvard Medical School.
HCMV NEC inh: disrupts HCMV UL50-UL53 complex binding | HTRF UL50-UL53 interaction, normalized percent inhibition | hit rate 0.15% among 190,000 | inhibition, % (concentration not given with the values);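 active = both replicates at 50% or more, plus weaker picks with an unusually low signal ratio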;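 note: stock transfer was 100 nL into about 20 µL; 0% = negative control wells and 100% = wells with untagged competitor protein; inactives centre near -12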
Sa growth 42C: inhibitors of Staphylococcus aureus growth at 42 °C. S. aureus RN4220 growth, OD600, 20 h; stronger effect = lower value. AID 720641. relative growth, % (test concentration not listed). hit rate 0.53% among 170,000;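 active = growth at 42 °C up to 50% and 20 or more points under that at 30 °C, or under 10% at both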;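 note: 300 nL library stock went into each well; scaled to the means of positive and negative controls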
GIV-Gai inh: blocks GIV peptide binding to rat Galpha-i3; Galpha-i3/FITC-GIV peptide fluorescence polarization, 90 min; stronger effect = lower value; scaled: aluminum fluoride 0%, vehicle 100%; percent of control (FP), % (no concentration beside the values); hit rate 0.42% among 210,000; AID 1224905;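 active = replicate mean at 85% of control or lower, very high polarization wells dropped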;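 note: wells of about 15 µL received 100 nL stock; the first replicate is given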
Target sequence (P08753 whole entry, looked up): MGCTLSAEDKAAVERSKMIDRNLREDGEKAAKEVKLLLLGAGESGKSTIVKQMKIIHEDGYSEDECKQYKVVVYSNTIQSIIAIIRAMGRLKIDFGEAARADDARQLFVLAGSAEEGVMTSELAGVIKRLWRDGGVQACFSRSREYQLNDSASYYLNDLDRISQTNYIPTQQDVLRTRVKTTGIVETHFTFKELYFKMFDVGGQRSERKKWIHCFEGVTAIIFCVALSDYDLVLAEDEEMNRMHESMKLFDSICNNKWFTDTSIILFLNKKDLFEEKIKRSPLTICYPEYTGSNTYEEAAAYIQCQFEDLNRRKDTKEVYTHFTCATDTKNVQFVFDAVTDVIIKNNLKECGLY
Sa growth 42C second temp: recorded beside Sa growth 42C, whose call it bears; relative growth, %; measured here: growth at 30 °C;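 optical density after 20 h as mean of two plates; 100% = untreated growth and lower means inhibition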
* marks the source's active call; other numbers are inactive results; · = not tested or not shown; & = joins results of further samples. Compounds were not picked by outcome; about 0.83% have a hit in one of these screens.

SMILES | HCMV NEC inh | Sa growth 42C | Sa growth 42C second temp | GIV-Gai inh
Cc1cc2c(NC(=O)c3ccccc3C(=O)O)cccc2nn1 | -10.6 | 118.4 | 87.8 | 108.4
NC(N)=NC(=O)c1ccc(N)cc1 | -8.0 | 62.0 | 75.2 | 94.4
O=C(O)COc1ccc(-c2nnn(CC(=O)O)n2)cc1 | -29.3 | · | · | 100.8
Cc1cccc(N2CCn3c2nc2c3c(=O)n(CC(=O)O)c(=O)n2C)c1 | -13.3 | · | · | 97.4
Cc1cccc(C)c1OCC(=O)NC(Cc1c[nH]c2ccccc12)C(=O)O (stereo not given) | 14.6 | 116.0 | 104.0 | 101.1
O=C(Nc1cccc(NC(=O)c2ccccc2Cl)c1)c1cccc(Br)c1 | -10.2 | 119.0 | 104.3 | 107.3
Cc1ccc2nc(N=C(N)N)[nH]c2c1 | -14.9 | 55.8 | 52.1 | ·
CC(C(=O)NCCc1c[nH]c2ccccc12)N1Cc2ccccc2C1=O (stereo not given) | -2.3 | 111.5 | 82.7 | 104.9
CCCn1c(N)c(C(=O)CSc2ncc(C(F)(F)F)cc2Cl)c(=O)[nH]c1=O | -6.5 | 79.2 | 84.1 | ·
CCCCOC(=O)c1ccc(NC(=O)c2cc3cc(Br)ccc3oc2=O)cc1 | -18.2 | · | · | 103.5
O=C1Nc2ccc([N+](=O)[O-])cc2C1(O)N1CCCCCC1 (stereo not given) | -64.3 | · | · | 103.7
CCOc1cc2[nH]c(=S)n(CC(OCC)OCC)c(=O)c2cc1OCC | 2.1 | 93.8 | 92.8 | 104.2
COCC(C)n1c(=S)[nH]c2ccccc2c1=O (stereo not given) | -19.9 | 86.1 | 97.1 | ·
CSCc1nc2sc(C(=O)NC3CC3)c(C)c2c(=O)[nH]1 | -38.2 | 95.9 | 85.7 | ·
COc1cccc(NC(=O)CN(C)CC(=O)Nc2ccc(S(=O)(=O)N(C)C)cc2)c1 | 2.9 | 87.2 | 90.6 | ·
Fc1ccc(OCc2nn3c(-c4cccnc4)nnc3s2)cc1 | 3.9 | · | · | 108.9
Cc1oc2ncnc(N3CCC(C(=O)NC4CC4)CC3)c2c1C | -26.2 | · | · | 104.2
CCOC(=O)c1ccccc1NC(=O)CSc1ncc(S(=O)(=O)c2ccc(C(C)(C)C)cc2)c(=O)[nH]1 | -17.7 | · | · | 102.9
O=C(O)CSc1ccc(Br)cc1 | 1.0 | 87.0 | 90.5 | ·
CC(=O)NCc1c(F)cccc1Cl | -17.6 | 114.5 | 87.2 | 103.3
COc1ccc(/C=C/C(=O)OCc2nc3ccsc3c(=O)[nH]2)cc1S(=O)(=O)N1CCOCC1 | -38.7 | 76.7 | 87.0 | ·
O=C(NCCO)c1ccc2[nH]c3c(c2c1)CCCC3 | -2.2 | 92.3 | 73.9 | 101.7
O=C(CSCc1ccccc1)NC1CCSC1=O (stereo not given) | -6.0 | 119.0 | 95.3 | 101.9
CCOc1ccc(-c2nc(NC(C)=O)c3c(=O)oc4c(OC)cccc4c3n2)cc1 | 6.9 | 105.8 | 88.1 | 106.0
Cc1ccccc1NC(=O)N1CC(C)Sc2ccccc21 (stereo not given) | -6.8 | 89.7 | 71.8 | 101.4
Following part.
SMILES | HCMV NEC inh | Sa growth 42C | Sa growth 42C second temp | GIV-Gai inh
O=C(CCCn1c(=O)c2cccn2c2ccc(Br)cc21)NC1CCS(=O)(=O)C1 (stereo not given) | -11.2 | · | · | 104.3
O=C(CN1CCN(Cc2ccccc2)C(=O)C1=O)N1CCN(c2ccccn2)CC1 | -30.6 | · | · | 108.1
Cc1ccc(C)c(Cn2c(C(C)NC(=O)c3ccc(F)cc3)nc3ccccc32)c1 (stereo not given) | -0.4 | 102.0 | 84.5 | 101.1
CCOC(=O)C1=C(C)NC2=C(C(=O)CC(c3ccc(OC)c(OC)c3)C2)C1c1ccccc1OCC (stereo not given) | -7.5 | · | · | 102.8
Cc1ccc(S(=O)(=O)N(C)C2CCS(=O)(=O)C2)cc1C (stereo not given) | 5.3 | 102.5 | 92.9 | ·
O=C(C1CCN(C(=O)N2CCOc3ccccc32)CC1)N1CCOCC1 | · | 101.4 | 88.0 | 97.6
COc1ccc(C(CC#N)c2ccccc2)cc1 (stereo not given) | -9.6 | 98.5 | 99.9 | 96.7
Cn1c(=O)c2ccc(C(=O)NC3CCCC3)cc2n2c(SCC(=O)NC3CCCC3)nnc12 | -35.8 | · | · | 107.4
Cc1nnsc1C(=O)NCc1csc(-c2cccs2)n1 | -45.6 | 99.6 | 96.7 | 101.3
Cc1nc2nc(N3C(=O)c4ccccc4C3=O)[nH]n2c(=O)c1Cl | 4.6 | 98.1 | 97.8 | 105.4
CC1CCC(NC(=O)C2CCCN(S(=O)(=O)c3ccc4c(c3)NC(=O)C(C)O4)C2)CC1 (stereo not given) | -20.3 | · | · | 111.9
Cc1nn(-c2ccc3nncn3n2)c2c1C(c1ccccc1)CC(=O)N2 (stereo not given) | -37.1 | · | · | 100.7
O=C(c1ccccc1)N1CCCCC(Sc2ccccc2)C1=O (stereo not given) | 1.4 | 123.3 | 96.4 | ·
CCC(=N\Nc1nc(C)cc(=O)[nH]1)/C(CC)=N/Nc1nc(C)cc(=O)[nH]1 | -12.5 | 81.6 | 93.6 | ·
COC(=O)CN1C(=O)C(O)(c2c(C)[nH]c3ccccc23)c2ccccc21 (stereo not given) | · | 132.9 | 102.9 | 112.1
COc1ccc(NC(=O)CSc2cc(N3CCCCC3)ncn2)cc1 | -29.0 | · | · | 104.5
Brc1cnn(Cc2ccccc2)c1 | -29.4 | 103.1 | 99.4 | 106.6
CCOCCn1c(COc2ccc(C(C)(C)C)cc2)nc2ccccc21 | -16.6 | · | · | 95.9
Cc1ccc(N2C(=O)CSC23C(=O)Nc2ccccc23)cc1F (stereo not given) | · | 101.0 | 92.0 | 102.1
Cn1cc(C(=O)NCc2ccccc2)c(=O)c2cc(S(=O)(=O)N3CCOCC3)ccc21 | -27.7 | 92.9 | 90.1 | 99.4
COc1cc(NC(=O)C2CCN(S(=O)(=O)c3ccc4c(c3)CCCC(=O)N4)CC2)cc(OC)c1 | · | 90.3 | 75.6 | 105.3
O=C(NCc1ccc(Cl)cc1)c1cnn2ccccc12 | · | 85.8 | 91.7 | 107.3
Cn1c(CNC2CCCCC2)nc2ccccc21 | -5.0 | 112.5 | 85.9 | 104.5
Cc1occc1-c1nnc2sc(-c3cccs3)nn12 | -4.8 | 77.9 | 57.5 | 102.1
Cc1occc1-c1nnc2sc(Cc3cccc4ccccc34)nn12 | -9.1 | 72.1 | 34.7 | 102.1

Three records drawn at random from the list so far:
SMILES | HCMV NEC inh | Sa growth 42C | Sa growth 42C second temp | GIV-Gai inh
Cc1occc1-c1nnc2sc(Cc3cccc4ccccc34)nn12 | -9.1 | 72.1 | 34.7 | 102.1
CCC(=N\Nc1nc(C)cc(=O)[nH]1)/C(CC)=N/Nc1nc(C)cc(=O)[nH]1 | -12.5 | 81.6 | 93.6 | ·
O=C(NCc1ccc(Cl)cc1)c1cnn2ccccc12 | · | 85.8 | 91.7 | 107.3

Continuation.
SMILES | HCMV NEC inh | Sa growth 42C | Sa growth 42C second temp | GIV-Gai inh
CN1C(C(=O)Nc2ccc(F)cc2F)=CC(c2ccc3c(c2)OCO3)=NS1(=O)=O | -30.3 | 104.0 | 86.5 | 102.3
CC(=O)Nc1ccc(NC(=O)c2ccc(C(F)(F)F)nc2C)cn1 | 12.8 | 105.4 | 93.9 | 108.2
CC1(C)CC(CCC(=O)Nc2ccc(S(N)(=O)=O)cc2)C(=O)O1 (stereo not given) | 6.3 | 90.4 | 91.4 | 103.1
c1ccc2[nH]c(C3CCN(CCN4CCOCC4)CC3)nc2c1 | -23.5 | 91.7 | 91.5 | 106.3
COC(=O)c1ccccc1NC(=O)Cn1c(CCC(=O)O)ccc1-c1ccccc1 | · | 120.0 | 71.1 | 104.3
COc1ccc(OCc2ccc(-c3nc(C#N)c(NC(C)c4ccccc4)o3)o2)cc1 (stereo not given) | -6.4 | 98.8 | 94.1 | 99.3
COc1cc(C(=O)OCC(=O)/C=C2/N(C)c3ccccc3C2(C)C)ccc1OCC(=O)N1CCOCC1 | -9.9 | 83.2 | 92.7 | ·
O=C1CSC(=Nc2ccc(O)cc2)N1 | -8.2&-19.0 | 100.5 | 84.2 | 107.5
O=c1c2ccccc2nnn1CSc1ccc(Cl)cc1 | -16.7 | 95.6 | 76.7 | 105.3
O=c1ncn(Cc2ccccn2)cc1-c1ccccc1 | -17.3 | 104.2 | 81.3 | 101.3
CC(C)C12CN3CC(C(C)C)(CN(C1)C3c1ccc(Cl)cc1)C2=O (stereo not given) | -16.4 | 116.5 | 89.4 | 109.6
O=c1ccc2cc(S(=O)(=O)N3CCOCC3)ccc2o1 | -28.4 | 95.0 | 89.8 | 102.0
CCOC(=O)c1noc2ncn(CC(=O)Nc3cc(Cl)ccc3OC)c(=O)c12 | · | 98.7 | 91.7 | 104.3
CC(C)(C)c1ccc(C(=O)NCCN2CCCC2)cc1 | -4.0 | 98.2 | 87.7 | 105.3
CCc1ccc2nc(Cl)c(CO)cc2c1 | -4.2 | 76.5 | 88.7 | 99.2
N#CC(C(=O)Nc1ccccc1)C(=O)c1cccs1 (stereo not given) | -20.6 | 88.5 | 63.5 | 98.7
Cc1ccccc1NC(=O)N1CCCC(c2nc(-c3ccc(F)cc3)no2)C1 (stereo not given) | 1.4 | 103.1 | 74.6 | 109.3
Nc1cc(C(=O)OCC(=O)N2CCCc3ccccc32)ccc1Cl | -11.1 | 105.8 | 85.8 | ·
O=C(CSc1nnc(COc2ccccc2Cl)o1)NC(=O)c1ccccc1 | -6.6 | 105.8 | 86.8 | ·
Cc1cc(/C=C(\C#N)C(=O)NCc2cccs2)c(C)n1C1CCCC1 | 9.6 | 79.4 | 113.5 | 101.6
COc1ccc(NC(=O)c2oc3ccccc3c2NC(=O)c2cc(=O)c3ccccc3o2)cc1 | -23.8 | 95.1 | 81.4 | 100.6
CCOC(=O)c1cc(C)n(CC2CCC(C(=O)Nc3cccc(Cl)c3)CC2)c1C (stereo not given) | · | 97.3 | 87.0 | 103.6
O=C(Cc1ccc(NC2=NC3CS(=O)(=O)CC3S2)cc1)Nc1ccccc1 (stereo not given) | -21.6 | 87.2 | 92.3 | 94.9&100.0
COc1ccc(C(CC(=O)c2ccco2)C2CCCCC2=O)cc1 (stereo not given) | 5.3 | 90.7 | 92.5 | ·
O=C(OCn1nnc2ccccc2c1=O)C1CCN(C(=O)c2ccc(Cl)cc2)CC1 | -16.9 | 81.5 | 81.3 | ·
(cont.)
SMILES | HCMV NEC inh | Sa growth 42C | Sa growth 42C second temp | GIV-Gai inh
O=C(COc1ccc(-c2nnco2)cc1)NCCC1=CCCCC1 | -9.4 | 83.8 | 92.2 | ·
CCCSc1ncc(Cl)c(C(=O)Nc2nc3ccc(C)cc3s2)n1 | -14.8 | 105.6 | 82.9 | 106.5
Cn1cc(S(=O)(=O)N2CCCCCC2)cc1C(=O)NCc1ccc(Cl)cc1 | · | 94.3 | 83.1 | 101.2
CCC(=O)NC(=S)Nc1ccccc1 | -8.1 | 110.5 | 101.1 | 102.1
CC1CCC(C#N)(N(C)C(=O)COC(=O)c2ccc(CSc3ncn[nH]3)cc2)CC1 (stereo not given) | -1.9 | 94.0 | 92.5 | ·
CC(=O)n1cc(/C=N/NC(=O)c2sc(C)nc2C)c2ccccc21 | -51.2 | 100.5 | 56.6 | ·
CN(C)C1(CNCc2cnn(-c3ccccc3)n2)CCCCC1 | -2.8 | 112.7 | 96.2 | ·
CC(=O)SC[C@@H](C)C(=O)N1CCC[C@H]1C(=O)O | -15.0 | 105.0 | 83.4 | ·
COc1cccc(C(Nc2cc(C)ccn2)c2cc(C)sc2NC(=O)c2ccccc2)c1 (stereo not given) | -16.6 | · | · | 108.1
CCOc1ccccc1NC(=O)N1CCN(CC(=O)c2c(C)n(C)c3ccccc23)CC1 | -7.8 | · | · | 104.5
FC(F)(F)c1cccc(CN2CCSCC2)c1 | -6.6 | 107.5 | 78.1 | 98.0
N#Cc1cccc(NC(=O)COC(=O)c2ccc(Cl)cc2N)c1 | 4.5 | 104.5 | 77.5 | ·
CCOc1ccc(NC(=O)Cn2cc(C(=O)c3ccc(C)cc3)c(=O)c3cc4c(cc32)OCCO4)cc1 | 8.9 | 96.6 | 91.0 | 106.8
COc1ccc(C(=O)Nc2ccc3oc(-c4ccc(Br)cc4)nc3c2)cc1OC | -6.6 | · | · | 102.1
Cc1cc(NC(=O)C2CCCC2)n(-c2ncnc3c2cnn3-c2cccc(Cl)c2)n1 | -14.7 | · | · | 99.3
CC(=O)Nc1ccc(Oc2nnc(-c3ccc(C)cc3)c3ccccc23)cc1 | -13.8 | · | · | 101.5
COc1cc2c(cc1OC)CN(S(=O)(=O)c1ccc3c(c1)OCCCO3)CC2 | 0.5 | 83.4 | 91.2 | 113.6

Sorted by value in GIV-Gai inh (high to low): 6 of the compounds above.
molecule,GIV-Gai inh
CCOc1ccc(NC(=O)Cn2cc(C(=O)c3ccc(C)cc3)c(=O)c3cc4c(cc32)OCCO4)cc1,106.8
CCCSc1ncc(Cl)c(C(=O)Nc2nc3ccc(C)cc3s2)n1,106.5
COc1ccc(C(=O)Nc2ccc3oc(-c4ccc(Br)cc4)nc3c2)cc1OC,102.1
Cn1cc(S(=O)(=O)N2CCCCCC2)cc1C(=O)NCc1ccc(Cl)cc1,101.2
Cc1cc(NC(=O)C2CCCC2)n(-c2ncnc3c2cnn3-c2cccc(Cl)c2)n1,99.3
FC(F)(F)c1cccc(CN2CCSCC2)c1,98.0
